hNpr1 antagonist – Natriuretic polypeptide receptor (hNpr1) antagonism - Primary qHTS; Atrial natriuretic peptide receptor 1 (Homo sapiens), P16066; HEK293 hNpr1 GloSensor cGMP, ANP-stimulated luminescence; Potency, µM (series often up to 46.3 µM), for the others: top-dose activity change, negative = inhibition, most hits filed as inhibitors; 76,000 compounds, 1.6% hits; AID 1347048, 2019; active = well fitted inhibition curve with a large enough effect; inconclusive = small, poorly fitted or top-dose-only effect; inactive = no such curve, though single readings can be large or run the other way;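 note: nearly all actives have a fitted effect of over 60% in size; nearly all hits also lower the signal before the agonist is added; a reference antagonist and vehicle were the controls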
Target sequence (P16066 whole entry, looked up): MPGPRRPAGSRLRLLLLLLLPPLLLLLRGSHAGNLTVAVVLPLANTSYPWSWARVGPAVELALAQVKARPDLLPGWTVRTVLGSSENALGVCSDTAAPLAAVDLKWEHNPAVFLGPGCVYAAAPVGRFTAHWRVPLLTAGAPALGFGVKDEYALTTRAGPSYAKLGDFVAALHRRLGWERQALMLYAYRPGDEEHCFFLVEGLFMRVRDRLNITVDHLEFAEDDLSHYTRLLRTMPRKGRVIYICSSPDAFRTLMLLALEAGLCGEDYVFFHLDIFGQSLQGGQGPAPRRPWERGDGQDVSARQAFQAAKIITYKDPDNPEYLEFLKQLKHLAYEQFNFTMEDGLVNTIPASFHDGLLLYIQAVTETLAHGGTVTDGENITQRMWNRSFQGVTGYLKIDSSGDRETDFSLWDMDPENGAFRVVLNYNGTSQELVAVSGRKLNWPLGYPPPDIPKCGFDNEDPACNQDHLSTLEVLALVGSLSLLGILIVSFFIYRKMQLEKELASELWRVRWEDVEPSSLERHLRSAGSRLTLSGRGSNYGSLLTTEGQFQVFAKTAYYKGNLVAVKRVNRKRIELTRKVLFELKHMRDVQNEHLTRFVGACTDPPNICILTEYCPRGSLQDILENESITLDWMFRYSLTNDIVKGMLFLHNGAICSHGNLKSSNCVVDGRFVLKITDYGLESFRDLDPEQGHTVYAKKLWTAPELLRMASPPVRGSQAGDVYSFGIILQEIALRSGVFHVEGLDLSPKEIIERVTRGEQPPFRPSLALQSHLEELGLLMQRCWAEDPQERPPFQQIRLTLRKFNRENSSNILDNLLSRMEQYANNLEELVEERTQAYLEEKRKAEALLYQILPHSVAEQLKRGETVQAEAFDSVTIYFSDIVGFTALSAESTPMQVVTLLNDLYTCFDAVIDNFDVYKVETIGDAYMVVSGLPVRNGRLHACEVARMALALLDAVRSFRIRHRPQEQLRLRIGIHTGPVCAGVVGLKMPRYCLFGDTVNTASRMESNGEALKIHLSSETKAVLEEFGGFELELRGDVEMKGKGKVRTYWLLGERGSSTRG
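Compound pre-incubated 30 min at room temperature on GloSensor-loaded HEK293 cells stably carrying hNpr1 and the pGS-40F cGMP biosensor. Stimulation uses hNppA at 0.1 nM final; luminescence is taken at baseline and 20 min post-agonist.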
Active calls of the source: *; ? = inconclusive; [ ] = another dose, or the depositor's remark. % is set by controls: 0 for no effect and ±100 for the full control effect; potency is the fitted concentration of half-maximal effect.

hNpr1 antagonist	SMILES
-18%	CCOc1cc(=O)n2c(c1C(=O)Nc1ccccc1C(=O)OC)CCCC2
-2%	CN1CCCCCCN(Cc2ccc3[nH]ccc3c2)[C@H]2CCC[C@H]2C1=O
-2%	COCCc1noc([C@@H]2CN(Cc3ccc(C)o3)C[C@H]2CO)n1
1%	COCCc1noc([C@@H]2CC(F)(F)CN2C(=O)c2ncccc2F)n1
3%[70.6 µM]	COc1ccc(C(=O)N[C@@H]2C=C(C(=O)NCCC(N)=O)C[C@@H](O)[C@@H]2O)cc1
-1%	COc1ccc(C(=O)N2CCCCCCN(C)C(=O)[C@@H]3CCC[C@@H]32)cn1
2%	COCc1ccc2c(c1)c(OC(C)(C)C(=O)NC1CCC(O)CC1)nn2Cc1cccnc1 (configuration not stated)
-1%[70.6 µM]	CC(C)c1noc([C@@H]2C[C@@H](O)CN2Cc2cc3ccccc3o2)n1
2%	COCCc1noc([C@@H]2CN(Cc3ccc(F)cc3)C[C@H]2CO)n1
-3%	Cc1ccccc1S(=O)(=O)N1CCN(C2CCN(CCC(C)C)C2=O)CC1 (configuration not stated)
-1%[70.6 µM]	CCC(CC)C(=O)N1CCC(O)(c2csc(CN3CCc4ccccc4C3)n2)CC1
?	CC1=C[C@@H](CNC(=O)c2ccccc2)[C@H](C(C)C)C[C@H]1Cc1nc2ccccc2n1C
-8%	NC(=O)COc1ccccc1CN(Cc1ccsc1)CC1CCCO1 (configuration not stated)
5%	CN1CCN(CC2(c3nc4c([nH]3)CC(C)(C)CNC4=O)CC2)CC1
-2%[70.6 µM]	Cc1ccc(CN[C@@H]2CO[C@H](CNS(=O)(=O)c3ccc(C)cc3)[C@H]2O)cc1
-18%	COCC1CN(C2CCC2)CC12CCN(C(=O)Cc1cccc(F)c1)CC2 (configuration not stated)
4%	Cc1ccc2ncccc2c1Cn1ccnc1-c1cc2n(n1)CCCNC2
7%	CCS(=O)(=O)C(C)C(=O)Nc1ccc(OC)c(NC(=O)c2ccco2)c1 (configuration not stated)
0%	CN1CCN(Cc2nnc(C(=O)N3CCC[C@@H]3C(c3ccccc3)c3ccccc3)n2-c2ccccc2)CC1
-1%	COCCn1ncc(N2CCC(C(=O)Nc3ccc(N4CCOCC4)cc3)C2)cc1=O (configuration not stated)
1%	COc1ccc(-c2nc3cc(C)ccc3cc2CN2CCCC(C(N)=O)C2)cc1 (configuration not stated)
2%	CCS(=O)(=O)Nc1ccc(C(=O)N2CCN(C(C)=O)CC(O)C2)cc1 (configuration not stated)
1%	Cc1ccc(-c2cc3c(=O)n(CCNC(=O)c4ccc(N(C)C)cc4)ccn3n2)cc1C
5µM*	O=C(Cc1ccsc1)N1CCC(Cc2nc(-c3ccc(F)cc3)no2)CC1
-2%[70.6 µM]	Cc1ccc(-c2cnc([C@@H]3COCCN3C3CCOCC3)[nH]2)cc1
-26%	C1CC(COCCc2noc(C3CNC3)n2)CCO1
1%	CCc1ccc(NC(=O)COc2ccc(-c3nnc4n3CCCC4)cc2)cc1
1%	CCN1C(=O)C(CC(=O)NCc2ccccn2)Sc2ncccc21 (configuration not stated)
-11%	CC(C)n1cc2cc(C(=O)NCCc3cccs3)sc2c1
6%	Cc1noc(-c2ccccc2OC2CCN(C(=O)c3cnccn3)C2)n1 (configuration not stated)
-9%[70.6 µM]	O=C(N[C@H]1CCN2C(=O)c3cc(-c4cccs4)ccc3NC(=O)[C@H]12)c1cnccn1
5%	CCC(=O)N1CCCC(c2nc(-c3cccnc3)no2)CCNC(=O)CC1 (configuration not stated)
-3%[70.6 µM]	Fc1ccc(-c2cnc([C@@H]3COCCN3Cc3ccncc3)[nH]2)cc1
2%	O=C(NCCN1CCCCC1)c1cc2c(s1)CCN(C(=O)c1ccc(Cl)cc1)C2
2%	CCn1cc(CN2CCCCCCNC(=O)[C@@H]3CCC[C@@H]32)c(C)n1
-2%	CCNC(=O)c1n[nH]c2c1CN(C(=O)c1cc(F)cc(F)c1)CC2
2%	CC(C)CN(Cc1ccco1)C(=O)CC1C(=O)NCCN1Cc1ccoc1 (configuration not stated)
8%	O=C1CC(c2ccccc2)N(C(=O)CNC(=O)c2ccccn2)CCCCCN1 (configuration not stated)
9%	O=C(c1nnn2cc(-c3ccccc3)[nH]c(=O)c12)N1CCCCCC1
0%[70.6 µM]	CC[C@H]1CN(C(=O)Nc2cccc(C(F)(F)F)c2)CC[C@H]1CC(=O)NCCSC
-8%[70.6 µM]	CN1C[C@@H](NC(=O)c2ccc(F)cc2)C[C@H]1c1nc(-c2ccccc2)no1
4%	CS(=O)(=O)N1CCc2ccc(C(=O)NCc3ccc(N4CCOCC4)cc3)cc21
-10%	CCc1cccc(NC(=O)CC2=C3CCCCC3NC2=O)c1 (configuration not stated)
-13%[70.6 µM]	O=C1c2cc(N3CCOCC3)nc(-c3ccccc3F)c2CN1CC1CC1
-1%	CN(C)c1ccc(C(=O)NC[C@H]2O[C@@H](CO)[C@@H](O)[C@H]2N(C)CCc2ccccc2)cc1
-5%[70.6 µM]	Cc1ccccc1Nc1n[nH]c(C(O)c2ccc3c(c2)CCO3)n1 (configuration not stated)
11%	C[C@H]1[C@@H]2[C@@H](O)C([C@H](C)C(=O)NCCN3CCOCC3)CC[C@@]2(C)CC[C@@H]1NC(=O)c1ccccn1 (some centres not stated)
5%	COc1cccc(N2CCN(C(=O)c3ccc(N4CC5CC(C4)[C@H]4CCCC(=O)N4C5)nc3)CC2)c1 (some centres not stated)
-1%	CC(=O)N1CCCC(CNc2nccc(-c3c(C)nn(C)c3C)n2)C1 (configuration not stated)
3%	CCn1ncc(CN2CCCC(C(=O)N3CCN(c4ccccn4)CC3)CCNC(=O)CC2)c1C (configuration not stated)
4%	O=C(C[C@H]1NC(=O)c2ccccc2NC1=O)Nc1ccncc1
1%	O=C(Cn1cccc1-c1nc(-c2ccccc2)no1)Nc1ccccc1Cl
4%[70.6 µM]	O=C(N[C@H]1CCN2C(=O)N(c3ccccc3)C(=O)[C@@H]2C1)C1CCCC1
-1%	COc1ccc(C[C@H](NC(=O)C2=C[C@@H](NC(=O)Nc3ccccc3Br)[C@@H](O)[C@H](O)C2)C(N)=O)cc1
2%[70.6 µM]	COCCN1C(=O)[C@@H]2C[C@@H](CN2Cc2cccnc2)Oc2ccccc21
-1%	Cc1ccc(NC(=O)N2CCC(CCNC(=O)C3CCCC3)CC2)cc1
?	Cc1ccc(C(=O)N2CCN(c3cc(C(F)(F)F)ncn3)CC2)cc1F
-8%	CC(=O)N(C1CC1)C1CCOC2(CCN(C(=O)NCc3ccc(F)cc3)CC2)C1 (configuration not stated)
-16%	O=C(c1ccoc1)N1CCCCCC1c1nc(-c2cccnc2)no1 (configuration not stated)
?	COc1cncc(Nc2cnc3ccc(-c4ccccc4OC)nn23)c1

(continued)
hNpr1 antagonist	SMILES
3%	COC[C@@H]1CN(C(=O)Cc2ccc(OC)cc2)C[C@H]1c1ccncc1
4%	CC(=O)N1C[C@@H]2CCCN3CCC[C@@H]([C@H]23)[C@H]1CCCC(=O)N1CCN(c2ccccn2)CC1
1%	CCc1nc(C)c(CC(=O)N[C@@H]2CCNC[C@H]2O)c(=O)[nH]1
-16%	O=C1NCCOCCN(S(=O)(=O)c2cccc3nsnc23)[C@H]2CCC[C@@H]12
?	O=C(CN1CCCc2nc(-c3ccncc3)ncc2C1=O)NCc1cc(F)ccc1F
0%	CC(C)(Oc1ccc2c(c1)CCC2)C(=O)N[C@H]1CCOC[C@H]1C1CCOCC1
-8%[70.6 µM]	C[C@H](O)c1c(-c2ccc(Cl)cc2)noc1C(=O)NC1CC1
-5%[70.6 µM]	C=CCn1cc2c3c(cccc31)[C@H](CC(C)C)N[C@H](C(=O)N1CCN(C)CC1)C2
4%	O=C1CCN(C(=O)c2n[nH]c3ccccc23)CCCC(C(=O)NCc2ccccc2)CCN1 (configuration not stated)
3%	CC(C)Cn1cncc1CNC(=O)c1ccc2nc(-c3ccc(F)cc3)cn2c1
5%	COc1ccc(C(=O)N2C[C@@H](CO)[C@H](c3nc(C)no3)C2)cc1F
4%	O=C(NC1CCCC1)C1CCCN(c2nc(-c3ccccc3)nc3c2CCC3)C1 (configuration not stated)
-6%	CN(C)c1cccc(NCc2nc3c(n2Cc2ccccc2)C(=O)N(CCOc2ccccc2)CCN3)c1
2%	CCc1sc(NC(=O)CC[C@H]2NC(=O)c3ccccc3NC2=O)nc1C(=O)OC
-7%	CCC1Oc2ccc(NC(=O)c3ccc(OC)c(OC)c3)cc2CN(Cc2ccc(Cl)cc2)C1=O (configuration not stated)
4%	COCCNC(=O)[C@@H]1C[C@@H](O)CN1C1CCN(C(=O)c2ccccc2F)CC1
-15%[70.6 µM]	COc1cccc(CN2Cc3nc(-c4ccccc4)ccc3OCC2=O)c1
5%	CN(Cc1ccc2nonc2c1)C(=O)c1cccc(CC2CCNCC2)c1
-5%	COc1cc([C@@H]2c3cc4c(cc3[C@H](O)[C@@H](CO)[C@@H]2C(=O)NCC(C)C)OCO4)cc(OC)c1OC
-3%[70.6 µM]	COCCNC(=O)C[C@@H]1C[C@@H](C(C)C)[C@H](CNS(C)(=O)=O)C=C1C
?	COC(=O)C(=O)N[C@H]1C[C@@H](Cc2cc(-c3ccc(OC)cc3)on2)C1(C)C
?	Cc1nn(-c2ccc(F)cc2)c(C)c1[C@@H]1C=C[C@@H](NC(=O)c2ccco2)C1
2%	Cc1ccc(-c2nc(CNC(=O)C3(N)CCC3)[nH]c2-c2ccccn2)cc1
-11%	COCCN1CCCCC(CC(=O)Nc2ccc(OC)cc2)C1=O (configuration not stated)
-2%	CN(CC1CCOCC1)S(=O)(=O)c1cccs1
11µM*	O=C(NCCc1ccccn1)c1cc2n(n1)CC(c1ccc(Br)cc1)OC2 (configuration not stated)
7%	CCc1ccccc1C(=O)N1CC[C@@](O)(CCOC)[C@H](C)C1
-15%	CSc1ccc(-c2ccc3c(c2)C(=O)N2CC[C@H](NC(=O)c4cccs4)[C@H]2C(=O)N3)cc1
-14%	CCNc1ncnc2sc3c(c12)CCN(Cc1ccco1)C3
-29%[70.6 µM]	CS(=O)(=O)c1ccc(CNC[C@H]2COCc3nc4cc(F)ccc4n32)cc1

Of the compounds above, ten have an NH in an aromatic ring.
hNpr1 antagonist	SMILES
-2%	CN1CCCCCCN(Cc2ccc3[nH]ccc3c2)[C@H]2CCC[C@H]2C1=O
5%	CN1CCN(CC2(c3nc4c([nH]3)CC(C)(C)CNC4=O)CC2)CC1
-2%[70.6 µM]	Cc1ccc(-c2cnc([C@@H]3COCCN3C3CCOCC3)[nH]2)cc1
-3%[70.6 µM]	Fc1ccc(-c2cnc([C@@H]3COCCN3Cc3ccncc3)[nH]2)cc1
-2%	CCNC(=O)c1n[nH]c2c1CN(C(=O)c1cc(F)cc(F)c1)CC2
9%	O=C(c1nnn2cc(-c3ccccc3)[nH]c(=O)c12)N1CCCCCC1
-5%[70.6 µM]	Cc1ccccc1Nc1n[nH]c(C(O)c2ccc3c(c2)CCO3)n1 (configuration not stated)
1%	CCc1nc(C)c(CC(=O)N[C@@H]2CCNC[C@H]2O)c(=O)[nH]1
4%	O=C1CCN(C(=O)c2n[nH]c3ccccc23)CCCC(C(=O)NCc2ccccc2)CCN1 (configuration not stated)
2%	Cc1ccc(-c2nc(CNC(=O)C3(N)CCC3)[nH]c2-c2ccccn2)cc1

Next structures.
hNpr1 antagonist	SMILES
?	CC(C)(C)c1ccnc(N[C@H]2CO[C@H]3[C@@H]2OC[C@H]3OC(=O)Nc2cccc(C(F)(F)F)c2)n1
2%[70.6 µM]	CN(C)c1ccc(CN2C[C@H](O)C[C@H]2c2nc(C3CC3)no2)cc1
3%	CC(C)Cc1cc(CN2CC[C@H](N3CCN(C)CC3)[C@H](CCC(=O)O)C2)[nH]n1
-3%	CCn1ccc(C(=O)N2CCCN(S(C)(=O)=O)C(c3ccccc3)CC(=O)NCC2)n1 (configuration not stated)
0%	CCNC(=O)c1cc2c(=O)[nH]c(-c3ccccc3)cn2n1
28µM*	CN(C)C[C@H]1O[C@H](Cc2cc(-c3cccc(O)c3)on2)CC[C@@H]1O
0%	Cc1ccc(C(=O)N2[C@@H]3CC[C@H]2CC(NC(=O)c2cnc(C)cn2)C3)cn1 (some centres not stated)
-22%	COc1ccc(CCNC(=O)Cc2ccc(N(Cc3ccccc3)C(=O)c3ccco3)cc2)cc1
?	COc1cccc(NC(=O)CCc2ccc3c(c2)CN(S(C)(=O)=O)CCO3)c1
1%	Cc1ncc2c(c1CNC(=O)c1ccc3c(c1)OCO3)CCN(C(=O)CC1NC(=O)c3ccccc31)C2 (configuration not stated)
-9%	O=C(c1nc(-c2cccc(C(F)(F)F)c2)c2ccccn12)N1CCCC1
-20%	O=C1CC(c2ccccc2)N(C(=O)CNC(=O)c2ccc3ccccc3n2)CCCCCN1 (configuration not stated)
4%	CC1(C)C[C@H](NCc2ccc(CO)o2)[C@@]2(CCC(=O)N3CCOCC3)CC[C@](C)(O)C[C@@H]12
5%	CN1CC2(CCN(C(=O)c3n[nH]c(=O)c4ccccc34)CC2)CC1C(=O)N1CCOCC1 (configuration not stated)
-13%	COc1ccc(C(=O)N2CCC(N3CC(OC)C34CCOCC4)CC2)c(OC)c1 (configuration not stated)
-13%	O=C(NCC1Cn2cccc2C(=O)N1Cc1ccccc1)c1cccc2nccnc12 (configuration not stated)
2%	CCOc1ccc(NC(=O)N(C)CC2CCOCC2)cc1
-4%	Cc1ccoc1C(=O)N1C[C@@H](COCC2CC2)[C@H](c2ccncc2)C1

Part of the list above in order of formula weight, smallest number first.
hNpr1 antagonist	SMILES
-3%[70.6 µM]	Fc1ccc(-c2cnc([C@@H]3COCCN3Cc3ccncc3)[nH]2)cc1
?	COC(=O)C(=O)N[C@H]1C[C@@H](Cc2cc(-c3ccc(OC)cc3)on2)C1(C)C
-15%	CSc1ccc(-c2ccc3c(c2)C(=O)N2CC[C@H](NC(=O)c4cccs4)[C@H]2C(=O)N3)cc1

Screening data: PubChem BioAssay, National Center for Advancing Translational Sciences (NCATS)

A portion of the library. The share of hits here may be higher or lower than overall.
